Biofilm kill mix: clotrimazole potentiators killing C. albicans biofilm, primary screen, 4-compound mixtures; 0.02% of 120,000 active; C. albicans biofilm persisters + clotrimazole, fluorescence viability; primary screen in compound mixtures of four per well; AID 1242, 2008; inhibition, % at 7.6 µM;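 active = inhibition above 30.3% in the primary screen of four-compound pools, then above 30% when the compound was retested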;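 also: compounds exposed to preformed 24 h biofilms for 48 h; the number belongs to the whole pool; some results filed as inactive read as strong as hits; inactives centre near 12; 0% = biofilm with clotrimazole alone and 100% = kill control; retested singly at about 60 µM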
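Assay system: C. albicans biofilms / Medium: RPMI/MOPS medium, pH 7.0 / Schedule: biofilm formation 24 h, compound exposure 48 h, 37 °C / Measured by: Alamar Blue fluorescence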
Active calls of the source: *. An excerpt; the hit share may differ from the screen's.

SMILES | Biofilm kill mix
COCCCNC(=O)Cn1cc(/C=C(\C#N)C(=O)N2CCN(c3ccccc3)CC2)c2ccccc21 | 15
O=C(CCc1nc2ccccc2c(=O)[nH]1)Nc1ccc(N2CCCCC2)cc1 | 13
COc1ccc(/C=C/c2noc(-c3ccccc3O)n2)cc1 | 3
COc1cccc(NC(=S)NC2CC(C)(C)NC(C)(C)C2)c1 | 19
COC(=O)c1cc(NC(=O)c2c(Cl)cnn2C)cc(C(=O)OC)c1 | 17
N#CC12CCCCC1CC1CCCCC1(C#N)N2N (stereo unspecified) | 25
CCCc1cc2c(OC(=O)CC)c(-c3ccc(C(=O)OCC)o3)c(=O)oc2cc1OC | 24
CC(C)Sc1nc2ccc(Br)cc2[nH]1 | 12
Cc1ccc(NC(=O)CCOc2ccccc2)cc1S(=O)(=O)Nc1ccccc1Cl | 9
COC(=O)CSc1nc(N)nc(C)c1Cl | -4
COc1ccc(CCN(C)CCCN2CC(c3ccccc3)CC2=O)cc1OC (stereo unspecified) | 4
Fc1cccc(COc2ccccc2C(=S)N2CCCC2)c1 | 16
CCOC(=O)c1[nH]c2ccccc2c1NC(=S)Nc1cccc(C)c1 | 14
Cc1nnc(SCC(=O)c2ccc(C(C)C)cc2)s1 | 10
CCc1ccc(NC(=O)c2cc(-c3ccc(F)cc3)on2)cc1 | 6
COC(=O)c1ccc(NS(=O)(=O)c2ccccc2)o1 | 6
C/C(=N\NC(=O)CNC(=O)c1ccc2c(c1)OCO2)c1ccco1 | 14
O=C(NCCCn1ccnc1)c1cc(-c2ccccc2)on1 | 9
COc1ccccc1-n1c(O)c(C=NCc2ccccn2)c2ccccc2c1=O | 17
CCCc1cc(=O)[nH]c(SCC(=O)Nc2ccc3c(c2)CCC3)n1 | 20
CSCCn1c(C(C)(C)C)cc(C(=O)O)c1C | 15
CCCn1cc(CN2CCN(Cc3ccc(C)o3)C(CCO)C2)c(C)n1 (stereo unspecified) | 11
CCOC(=O)c1cnc2c(c(C)nn2CC)c1NC1CC1 | 12
Cc1ccc(Nc2nnc(C(C)(C)C)c(=O)n2N)cc1 | 13
O=C(O)CCCN1C(=O)c2ccc(Oc3cccc([N+](=O)[O-])c3)cc2C1=O | 12
CCOC(=O)/C(=C\c1ccc(C)cc1)NC(=O)c1ccccc1 | 10
CN(CC1CCCO1)S(=O)(=O)c1ccc(C(=O)Nc2ccc3c(c2)OCO3)cc1 (stereo unspecified) | 10
CCCCCCCCCCCC(=O)NC(C(=O)O)C(O)c1ccccc1 (stereo unspecified) | -8
O=[N+]([O-])c1cc(C(F)(F)F)ccc1N1CCC(O)CC1 | 13
CC(=O)Oc1ccc(Nc2ccccc2)cc1 | -2

Sorted by SMILES length (low to high): part of the list above.
SMILES | Biofilm kill mix
COC(=O)CSc1nc(N)nc(C)c1Cl | -4
CC(=O)Oc1ccc(Nc2ccccc2)cc1 | -2
CSCCn1c(C(C)(C)C)cc(C(=O)O)c1C | 15
Cc1nnc(SCC(=O)c2ccc(C(C)C)cc2)s1 | 10
Fc1cccc(COc2ccccc2C(=S)N2CCCC2)c1 | 16
CCOC(=O)c1cnc2c(c(C)nn2CC)c1NC1CC1 | 12
Cc1ccc(Nc2nnc(C(C)(C)C)c(=O)n2N)cc1 | 13
CCCCCCCCCCCC(=O)NC(C(=O)O)C(O)c1ccccc1 (stereo unspecified) | -8
CCc1ccc(NC(=O)c2cc(-c3ccc(F)cc3)on2)cc1 | 6
CCOC(=O)/C(=C\c1ccc(C)cc1)NC(=O)c1ccccc1 | 10
O=[N+]([O-])c1cc(C(F)(F)F)ccc1N1CCC(O)CC1 | 13
COc1ccc(CCN(C)CCCN2CC(c3ccccc3)CC2=O)cc1OC (stereo unspecified) | 4
CCCc1cc(=O)[nH]c(SCC(=O)Nc2ccc3c(c2)CCC3)n1 | 20
COc1ccccc1-n1c(O)c(C=NCc2ccccn2)c2ccccc2c1=O | 17
Cc1ccc(NC(=O)CCOc2ccccc2)cc1S(=O)(=O)Nc1ccccc1Cl | 9
CN(CC1CCCO1)S(=O)(=O)c1ccc(C(=O)Nc2ccc3c(c2)OCO3)cc1 (stereo unspecified) | 10
O=C(O)CCCN1C(=O)c2ccc(Oc3cccc([N+](=O)[O-])c3)cc2C1=O | 12

Other entries
SMILES | Biofilm kill mix
Cc1ccc(Cl)cc1N1CCN(C(=O)Cc2ccc(-n3c(=O)[nH]c4ccsc4c3=O)cc2)CC1 | 8
CCCCOc1ccc(C(C)NC(=O)CCS(=O)(=O)Cc2ccc(C)cc2)cc1 (stereo unspecified) | 10
CCCCNc1nc2c(S(=O)(=O)c3ccccc3)nnn2c2ccccc12 | 3
CCOC(=O)/C(=C/c1ccc(OC(=O)c2ccncc2)cc1)C(C)=O | 11
CC(C)C(=O)Nc1ccc(C(=O)Nc2ccc(Br)cc2F)cc1 | 29
Cn1c(=O)n(C)c2cc(S(=O)(=O)N3CCN(c4ccccc4)CC3)ccc21 | 15
Cc1[nH]c(=O)c(C#N)c2c1COC(C)(C)C2 | 3
Cc1cc2nc(C(F)(F)F)cc(-c3cccs3)n2n1 | 8
Cc1cccc(NC(=S)NC23CN4CN(CN(C4)C2)C3)c1C | 18
CC(NS(=O)(=O)c1ccccc1)C(c1cccs1)N1CCN(C)CC1 (stereo unspecified) | -3
Cn1c(=S)ccc2ccccc21 | 13
COC(=O)C1=C(C)N(c2ccc(Br)cc2)C(=O)/C1=C\c1ccco1 | 2
CCOc1ccc2nc(NC(=O)c3cc([N+](=O)[O-])ccc3N3CCOCC3)sc2c1 | 19
CNC(=S)N=Nc1c(O)[nH]c2ccc(C(C)C)cc12 | 23
Cc1ccc(SCC(=O)NCc2ccncc2)cc1 | 10
CCOc1ccccc1NC(=S)N1CCN(c2nc(-c3ccc(F)cc3)cs2)CC1 | 20
COc1ccc(CNC(=O)Nc2cccc(C(F)(F)F)c2)cc1OC | 14
C#CCOCCOCCOCCNc1nc(N2CCN(C(=O)[C@H](CCC(=O)O)n3cc(C(N)CO)nn3)CC2)nc(N2CCN(C(=O)[C@H](CCCCN)n3cc(C(N)CC(C)C)nn3)CC2)n1 (stereo partly specified) | -1
COC(=O)C1=C(C(=O)OC)[C@@H]2N(Cc3ccccc3)c3ccccc3[C@@]23C[C@@H](C(=O)OC)N(C(=O)c2cccs2)C3=N1 | 13
CCc1ccccc1NC(=O)c1cccc(Oc2ccc([N+](=O)[O-])cc2Cl)c1 | 14
CNC(=O)/C(C#N)=C/c1c(N(Cc2ccccc2)Cc2ccccc2)nc2c(C)cccn2c1=O | 2
O=C1NC(=S)/C(=C\c2ccc(-c3ccccc3Cl)o2)S1 | 18
Cc1ccc(Oc2ncccc2N)c2c1CCC2 | 3
COc1ccc(C(=O)N2CCC(n3nnc4cc(F)ccc43)CC2)cc1OC | -13
O=C(Nc1ccc(C(=O)N2CCCC2)cc1)c1ccccc1[N+](=O)[O-] | 1
Cc1cc(N/N=C/c2ccc(O)cc2O)nc(-n2nc(C)cc2C)n1 | 7
COc1ccc(-c2cc(-c3ccccc3)c(C#N)c(SCC(=O)Nc3ncc(C)s3)n2)cc1 | 17
CCc1nnc(NC(=O)c2sc3nc(C)cc(COC)c3c2N)s1 | 7
O=C(O)CCC(=O)Nc1ccc(Sc2ccc([N+](=O)[O-])cc2)cc1 | 14
Cc1ccc(-c2csc3nc4c5ccccc5c(NCCCN5CCOCC5)nn4c(=O)c23)cc1 | 10
CC(C)=C1C2CCC1C(C(=O)Nc1sc(C)c(-c3ccc(C(C)C)cc3)c1C(N)=O)C2C(=O)O (stereo unspecified) | 13
COc1cc(OC)cc(C(=O)Nc2nnc(NC(=S)Nc3ccccc3)s2)c1 | 8
O=C(NCC1CCCO1)/C(=C\c1ccccc1)NC(=O)c1ccccc1 (stereo unspecified) | -4
COc1ccc(/C=N/NC(=O)CCn2cnc(-c3ccccc3)c2-c2ccccc2)cc1OC | 11
Oc1cccc(C(=S)N2CCCCC2)c1 | 1
NC(=O)N=Nc1c2[nH]c3ccccc3nc-2c2ccccc12 | 15
CCCCNC(=O)CCSc1ccc(C)cc1 | -8
CCOc1ccc(/C=N/OCC(=O)NCc2ccco2)cc1 | 6
O=C(CCC1N=C2c3ccccc3N=C(SCC(=O)NCc3ccco3)N2C1=O)NCc1ccco1 (stereo unspecified) | 11
O=C(CCCn1nnc2ccccc2c1=O)N[C@H](C(=O)O)c1ccccc1 | 8
Cc1ccc(C(=O)N2CC(=O)Nc3ccc(F)cc3C2c2ccc(F)cc2)cc1[N+](=O)[O-] (stereo unspecified) | 8
COc1cc(Br)cc(CNc2ccc(F)c([N+](=O)[O-])c2)c1O | 19
CCn1c(C)nc2cc(S(=O)(=O)C(F)(F)F)ccc21 | 7
Cc1ccnc(NC(c2cccnc2)c2ccc3cccnc3c2O)c1 (stereo unspecified) | 18
Cc1cc(NC(=O)c2ccccc2Cl)n(C(C)(C)C)n1 | 17

In a second layout: results already given
smiles,Biofilm kill mix
O=C(CCC1N=C2c3ccccc3N=C(SCC(=O)NCc3ccco3)N2C1=O)NCc1ccco1 (stereo unspecified),11
O=C(CCCn1nnc2ccccc2c1=O)N[C@H](C(=O)O)c1ccccc1,8
Cc1ccc(C(=O)N2CC(=O)Nc3ccc(F)cc3C2c2ccc(F)cc2)cc1[N+](=O)[O-] (stereo unspecified),8

The list goes on:
SMILES | Biofilm kill mix
Cc1cc(C)nc(SCC(=O)Nc2ncc(C(F)(F)F)cc2Cl)n1 | 22
CCOC(=O)Cc1csc(NS(=O)(=O)c2ccc(Cl)cc2)n1 | 16
COc1ccc([N+](=O)[O-])cc1NS(=O)(=O)c1cc(C(=O)O)ccc1OC | 10
Cc1cc(Cl)ccc1OCCn1cncn1 | 6
CSCC(CO)NS(=O)(=O)c1ccc(C)cc1 (stereo unspecified) | 21
COc1cc(/C=N/OCC(=O)NC2CCS(=O)(=O)C2)ccc1OC(F)F (stereo unspecified) | 14
Cc1ccc(CNC(=O)CS(=O)(=O)c2ccccc2)cc1 | 6
Cn1cc(CCC(=O)N2CCCC(CCC(=O)NCc3ccc(F)c(F)c3)C2)cn1 (stereo unspecified) | 7
CN(C)C(=O)CSc1nnc(-c2ccc(F)cc2)c2ccccc12 | 7
CC1=NN(Cc2ccccc2)C(=O)C1C(c1ccc(Cl)cc1)C(C#N)C#N (stereo unspecified) | 15
O=C(c1cccnc1)C1CCCN(Cc2nc(Cc3ccccc3F)no2)C1 (stereo unspecified) | 9
NC(=O)N/N=C/c1cccc(C(F)(F)F)c1 | 19
COc1ccc(CC2(CO)CCN(Cc3ccc4c(c3)CCO4)CC2)cc1 | 8
CCCOc1c(Br)cc(C2C3=C(CCCC3=O)N(CC)C3=C2C(=O)CCC3)cc1OC | 12
COCCN(Cc1cc2cc3c(cc2nc1Cl)OCO3)C(C)=O | 24
CC(C)c1ccc(NC(=O)C2C3C=CC4(CN(Cc5cccnc5)C(=O)C24)O3)cc1 (stereo unspecified) | 18
Nc1nc(-c2ccccc2)c(N=Nc2cccc3ccccc23)s1 | 5
CCCN(CCC)S(=O)(=O)c1ccc(C(=O)Nc2cc3oc4ccccc4c3cc2OC)cc1 | 17
COc1ccc(-c2nnc(CSc3nc4ccccc4c(=O)n3CC3CCCO3)o2)cc1OC (stereo unspecified) | 19
COc1cccc(NC(=S)NCCN2CCOCC2)c1 | 11
COc1ccc(NC(=O)COC(=O)CCCOc2ccc(Cl)cc2Cl)cc1Cl | 12
OCC1(Cc2cccc(Cl)c2)CCCN(Cc2sc(N3CCCC3)nc2Cl)C1 (stereo unspecified) | 21
COc1ccc(-c2cc(C(F)(F)F)n3ncc(C(=O)N4CCCCC4c4cccnc4)c3n2)cc1 (stereo unspecified) | 9
CS(=O)(=O)Nc1ccc(C(=O)Nc2cccc([N+](=O)[O-])c2)cc1 | 16
Cc1ccc(S(=O)(=O)NCc2ccco2)cc1C(N)=O | 16
O=C(Cn1c(/C=C/c2ccccc2)nc2ccccc21)Nc1ccc(F)cc1 | 16
CN(CCO)c1cc(N(C)CCO)c([N+](=O)[O-])cc1[N+](=O)[O-] | 10
NC(=O)[C@H]1CC2(CC(c3cccc(NC(=O)CC(c4ccccc4)c4ccccc4)c3)=NO2)CN1C(=O)c1ccccc1C(=O)c1ccccc1 (stereo partly specified) | 5
c1ccc(CCC2CCCCN2Cc2cn[nH]c2-c2cc3ccccc3o2)nc1 (stereo unspecified) | 13
O=C(NCc1ccccc1Cl)C1CC(=O)N(Cc2ccccc2)C1 (stereo unspecified) | 10
O=c1[nH]ncc(N/N=C\c2ccncc2)c1Cl | 10
COc1ccc(CNc2nc3nc(C)c(Cl)c(=O)n3[nH]2)cc1 | 19
CCCc1cc(=O)[nH]c(SCC(=O)Nc2ccc(Br)cc2)n1 | 13
CC(C)C(=O)Nc1nc2ccc(S(C)(=O)=O)cc2s1 | 22
CSc1nc(-c2ccc(C)cc2)nc(N)c1C#N | 21
NNC(=O)c1csc(-c2ccc(C(F)(F)F)cc2Cl)n1 | 15
C[n+]1cccc2c(Br)ccc([O-])c21 | 12
CCCn1c(-c2ccccc2)cc(SC)c(C#N)c1=O | 5
Cn1ncc(Cl)c1C(=O)NCc1ccc(Cl)cc1 | 11
Cc1c(CCOC(=O)c2cc([N+](=O)[O-])cc([N+](=O)[O-])c2)sc[n+]1CC(=O)c1ccccc1 | 14
COC1CCN(Cc2cn(Cc3ccccc3)nc2-c2cc3ccccc3o2)CC1 | 13
CC(NC(=O)c1cccnc1)C(c1cccs1)N1CCOCC1 (stereo unspecified) | 16
Cc1nonc1OCCNc1ccc([N+](=O)[O-])cc1 | 17
COc1ccc(NC(=S)Nc2cccnc2)c(OC)c1 | 21
Cc1cc(C(=O)N/N=C(\CCC(=O)O)c2cccs2)c2ccccc2n1 | 8
COc1cc(Cl)c(C)cc1NC(=O)COC(=O)c1cc(SC)ccc1Cl | 18
CCOC(=O)/C(=N\Nc1ccc(C(C)=O)cc1)c1csc(Nc2ccccc2)n1 | 9
CCn1nnc(NC(=O)c2ccc([N+](=O)[O-])o2)n1 | 1

Assay outcomes (PubChem)
